Screening data: PubChem, several laboratories
Mtb hypoxia inh – Mtb hypoxia fluorescent reporter inhibition; M. tuberculosis hypoxia-regulated fluorescent reporter, fluorescence; fluorescence inhibition, % (test concentration not listed); 300,000 tested, 0.1% active;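 active means 35 to 45% if threefold the growth effect, above 45% if 1.5-fold the growth effect; inactive means the rest, general growth blockers included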;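 further: wells of about 50 µL received 100 nL stock; 0% = vehicle wells and 100% = reference inhibitor wells; whole bacteria with a GFP reporter of the hypoxia response; strong numbers were not always called active; many hits fall short of the cut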
Autofluor counter – compound fluorescence in toxin protease inhibitor counterscreen | compound autofluorescence counterscreen, microsphere flow cytometry; active compounds read high | fluorescence intensity (no concentration beside the values) | 360,000 tested, 3.1% active | AID 624483;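 active means at least 3 SD above the mean of all compounds, about 16000 in these data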;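 further: 100 nL of 1 mM stock went into each well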
RN4220 kill – kills Staphylococcus aureus RN4220; S. aureus RN4220 growth, OD600, 16 h; inhibition, % (concentration not given with the values); 330,000 tested, 0.33% active;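 active means z-score of -3 or lower and OD600 up to 0.18 on both plates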;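 further: plate controls were untreated cells for no effect and reference antibiotic for full effect; stock transfer was 100 nL into about 80 µL; one replicate is shown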
Sa ugtP lethal – growth inhibition of S. aureus ugtP deletion strain | growth inhibition, % (test concentration not listed) | S. aureus RN4220 ugtP deletion, OD600 growth, 16 h; some inactives read as strong as hits | 330,000 tested, 0.54% active | AID 1259309;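 active means z-score under -3 and OD600 up to 0.15 on both plates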;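 further: plate controls were untreated wells for no effect and antibiotic for full effect; wells of about 80 µL received 100 nL stock; the first replicate is given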
BJeLR viability – kills HRASV12-expressing BJeLR cells | BJeLR (HRASV12) viability, CellTiter-Glo ATP luminescence, 48 h; reference of the scale not given here | inhibition, % (test concentration not listed) | 300,000 tested, 0.17% active | AID 1554;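 active means replicate mean above 50%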;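 further: 50 nL library stock added to about 25 µL; numbers are from one replicate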
PrP UTR inh – suppresses PrP 5' UTR mRNA reporter expression. cell-based PrP 5' UTR mRNA reporter, plate reader. inhibition, % (no concentration beside the values). 340,000 tested, 0.35% active. AID 488862;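 active means every replicate at 50% or more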;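 further: 0 = median of the neutral control wells; tested in H4 reporter cells; numbers are from one replicate; inactives centre near -14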
Mtb hypoxia inh growth – recorded beside Mtb hypoxia inh, whose call it bears; growth inhibition, %; measured here: M. tuberculosis growth (absorbance);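 0% = vehicle and 100% = reference antibiotic; read after six days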
* hit, by the source's call; . = not tested or not shown.

SMILES	Mtb hypoxia inh	Mtb hypoxia inh growth	Autofluor counter	RN4220 kill	Sa ugtP lethal	BJeLR viability	PrP UTR inh
CN(C)c1ccc(C(=O)OCC(=O)NCCNC(=O)COC(=O)c2ccc(N(C)C)cc2)cc1	8	15	5922	2.6	-4	-3	-6
CSc1ncc(Cl)c(C(=O)Nc2ccccc2Cl)n1	-2	5	2589	4.3	1	-1	-1
O=C(Nc1ccc(Cl)cc1)Nc1nnc(-c2ccncc2)s1	-3	3	10234	7.5	0	27	-29
CC(C)c1ccccc1NC(=O)c1ccco1	8	13	6973	5.0	0	-5	-31
Cc1cc(C)n(-c2ccc(C(=O)Nc3ccc(C)c(S(=O)(=O)N(C)C)c3)cc2)n1	6	4	2527	-0.7	5	-3	-9
CCCn1c(/N=C/c2cc(OC)ccc2O)nc2ccccc21	.	.	2741	.	.	23	-21
COc1ccc(NC(=O)CN2CCN(C(=O)c3ccco3)CC2)c(OC)c1	5	1	3798	2.3	3	4	-15
CC(C)c1nc(SCC(=O)Nc2cccc(C(F)(F)F)c2)c2c(=O)n(C)c(=O)n(C)c2n1	-6	10	6409	-0.8	-26	-3	-2
COC(=O)[C@@H](Cc1c[nH]c2ccccc12)NC(=O)CCC(=O)c1ccc(F)cc1	-4	-2	3339	-1.8	-3	1	-4
Cc1ccc(C(=O)OCC(=O)Nc2ccc3c(c2)OCO3)o1	9	16	4481	2.1	2	3	-5
O=C(NCCCNC(=O)c1cncc(O)c1)c1cncc(O)c1	9	2	3878	3.6	3	-2	-8
C/C(=N\NC(=O)CC#N)c1cc2ccccc2oc1=O	.	.	2208	.	.	-8	-12
O=C(C1CCC(CNS(=O)(=O)c2cccc3nsnc23)CC1)N1CC=C(c2ccccc2)CC1 (configuration not stated)	.	.	4471	.	.	11	-10
OCCCN1c2ccccc2Nc2nnc(-c3ccccc3)cc21	1	6	2932	11	6	1	-112
Cc1ccsc1C1CC(=O)Nc2ccccc2S1 (configuration not stated)	-4	4	4513	4.9	2	-1	-21
O=C(COc1cc(Cl)c(Cl)cc1Cl)Nc1ccncc1	3	2	10141	-2.1	-11	-5	-13
CN(N=Cc1cc(Cl)cc(Cl)c1O)c1c(Cl)cccc1[N+](=O)[O-]	15	-5	.	-11	-75	.	.
COc1ccc(OC)c(/C(C)=N/Nc2ccc(C(=O)O)cc2)c1	.	.	2188	.	.	-2	-4
CSc1ccc(S(=O)(=O)Nc2c(C)cccc2C)cc1	13	9	11263	33	-15	-3	-22
Cc1cccc(NC(=S)Nc2ccc(Cl)c(Cl)c2)c1	-11	12	2573	99*	99*	-2	6
CCCCc1nnc(NC(=O)CN2C(=O)c3ccccc3C2=O)s1	9	6	4176	-0.1	8	0	-2
CC1CCCN(Cc2c(C(=O)N3CCc4ccccc4C3)nc3ccc(Cl)cn23)C1 (configuration not stated)	10	5	5154	3.0	8	-13	-8
Cc1cc(=O)[nH]c(Cc2ccc(OC(C)C)cc2)n1	17	6	10811	2.8	2	-3	-14
CCN1C(=O)C(CC(=O)Nc2ccccc2)SC1=Nc1ccccn1 (configuration not stated)	0	5	.	3.0	5	.	.
O=C(Cn1ccn(-c2ccc(F)c(F)c2)c(=O)c1=O)NCCc1ccccc1	-7	0	4402	-0.7	2	7	8
O=C(CNC(=O)c1ccccc1F)NC1=NCCS1	14	2	5656	1.9	13	1	-21
Cc1onc(-c2c(Cl)cccc2Cl)c1C(=O)N1CCN(c2ccccc2F)CC1	9	-2	6283	1.2	3	-7	-9
Cc1cc(C)c(S(=O)(=O)c2ccccc2C)c(OCCO)n1	-3	4	2755	2.4	-1	-3	-21
CCn1c2ccc(F)cc2c2nc3ccccc3nc21	.	.	4724	-1.9	15	-5	-4
Cc1cccc(NC(=O)C2CCN(C(=O)[C@@H]3Cc4ccccc4CN3)CC2)c1	3	5	5332	-0.6	-4	13	-10
O=C(N/N=C/c1ccco1)Nc1ccccc1	.	.	7197	.	.	20	-27
COc1ccc(OC)c(/C=N/N(C)c2ccccc2)c1	.	.	3480	.	.	-2	-66
CCc1ccc2nc(N=C(N)NC(=O)c3ccccc3)nc(C)c2c1	2	-3	.	9.5	-8	.	.
CN(C)/C=C(\C#N)C(=O)Nc1ccccc1	10	-2	4398	6.1	2	3	-23
O=C(O)C=C(Br)Br	.	.	5744	6.3	-7	0	-1
COc1cc(C(=O)NCC(c2cccs2)N2CCOCC2)cc(OC)c1OC (configuration not stated)	4	6	6325	1.0	-2	8	7
CCOC(=O)N1CCN(C(=O)Cc2ccc(-n3c(=S)[nH]c4ccccc4c3=O)cc2)CC1	4	11	10608	1.0	0	14	8
COc1ccc(-c2nc(CS(=O)CC(=O)NCCCN3CCCC(C)C3)c(C)o2)cc1OC (configuration not stated)	-2	4	5292	2.1	2	12	-11
COc1cc2nc(SCC(=O)NCCc3ccccc3)n(Cc3ccco3)c(=O)c2cc1OC	-1	0	9857	0.0	-7	0	-21
O=C(Cc1ccccc1F)NC1CCCN(Cc2ccc(Cl)cc2)C1 (configuration not stated)	-4	13	4209	-4.7	1	-7	0

Part of the list above in order of molar mass, lowest first.
SMILES	Mtb hypoxia inh	Mtb hypoxia inh growth	Autofluor counter	RN4220 kill	Sa ugtP lethal	BJeLR viability	PrP UTR inh
O=C(N/N=C/c1ccco1)Nc1ccccc1	.	.	7197	.	.	20	-27
O=C(O)C=C(Br)Br	.	.	5744	6.3	-7	0	-1
COc1ccc(OC)c(/C=N/N(C)c2ccccc2)c1	.	.	3480	.	.	-2	-66
O=C(CNC(=O)c1ccccc1F)NC1=NCCS1	14	2	5656	1.9	13	1	-21
O=C(Cc1ccccc1F)NC1CCCN(Cc2ccc(Cl)cc2)C1 (configuration not stated)	-4	13	4209	-4.7	1	-7	0
Cc1onc(-c2c(Cl)cccc2Cl)c1C(=O)N1CCN(c2ccccc2F)CC1	9	-2	6283	1.2	3	-7	-9
COc1ccc(-c2nc(CS(=O)CC(=O)NCCCN3CCCC(C)C3)c(C)o2)cc1OC (configuration not stated)	-2	4	5292	2.1	2	12	-11

Two records picked at random from the list so far:
SMILES	Mtb hypoxia inh	Mtb hypoxia inh growth	Autofluor counter	RN4220 kill	Sa ugtP lethal	BJeLR viability	PrP UTR inh
CCN1C(=O)C(CC(=O)Nc2ccccc2)SC1=Nc1ccccn1 (configuration not stated)	0	5	.	3.0	5	.	.
CCCCc1nnc(NC(=O)CN2C(=O)c3ccccc3C2=O)s1	9	6	4176	-0.1	8	0	-2

The list continues.
SMILES	Mtb hypoxia inh	Mtb hypoxia inh growth	Autofluor counter	RN4220 kill	Sa ugtP lethal	BJeLR viability	PrP UTR inh
CN1C(=O)c2ccc(C(=O)NCc3ccc4c(c3)OCO4)cc2C1=O	-3	6	2107	2.2	2	2	-25
CN(c1ccc(C(=O)N2CCN(c3ccccc3F)CC2)cc1)S(=O)(=O)c1ccccc1	-3	-1	5238	7.8	5	-3	-9
CCN1CCN(c2ccc(S(=O)(=O)N3CCCCC3)cc2NC(=O)c2cccc(C)c2)CC1	-1	-7	5154	0.4	8	0	-14
CCOC(=O)N1CCN(C(=O)C(=O)NN)CC1	3	0	3138	1.9	0	-7	-10
CC(=O)Nc1ccc(S(=O)(=O)Nc2ccc3c(c2)C(=O)OC3)cc1	6	3	.	4.4	-1	-3	.
Cc1cc(C)nc(N(C#N)CCOc2ccc(Cl)cc2)n1	22	-30	2423	20	16	-4	-11
Cc1ccccc1NS(=O)(=O)c1ccc(C(=O)N2CCN(S(=O)(=O)c3ccccc3)CC2)cc1	8	6	.	5.9	3	-3	1
O=C(NN=Cc1cccc2ccccc12)C(=O)N1CCCC1	-2	13	.	1.3	7	.	.
Cc1c(C(=O)NCCCN2CCOCC2)oc2c1C1(CCC2)SCCS1	13	4	2328	4.9	-4	2	-2
O=C(CSc1nc2[nH]ncc2c(=O)[nH]1)Nc1ccccc1C(F)(F)F	2	4	5903	-0.6	1	7	-24
Cc1onc(-c2ccccc2)c1C(=O)NN=C(N)COc1ccc(Cl)cc1	-4	3	.	0.1	-1	.	.
CC(C)[C@H](NC(=O)[C@H](Cc1ccccc1)n1c(=O)[nH]c2ccccc2c1=O)C(=O)N1CCC[C@@H]1C(=O)O	.	.	4171	-0.1	8	-1	-7
Cc1ccc(CCN2CC(C(=O)NCCCOC(C)C)CC2=O)cc1 (configuration not stated)	4	7	21642*	0.7	5	-2	2
C=CCOc1cccc(C(=O)N2CCCC(Nc3ccc4c(c3)OCCO4)C2)c1 (configuration not stated)	6	5	5698	3.6	10	-7	-15
C(=NNc1nncc2ccccc12)c1ccccc1	2	4	.	6.7	-8	.	.
O=S1(=O)CCC(=NO)c2ccccc21	4	3	.	-0.9	0	.	.
COc1ccc2[nH]c(C(=O)N3CCCN(Cc4ccc(F)cc4)CC3)cc2c1	17	10	6235	2.9	6	-5	-8
C/C(CC(=O)Nc1ccccc1F)=N\NC(=O)Cc1ccc(Cl)cc1	.	.	4551	.	.	0	-17
Cc1nn(C)c(Cl)c1NC(=O)OCc1ccc(F)cc1	13	3	8567	5.7	4	3	0
COc1cc(C(=O)OCC(=O)Nc2c(C)n(C)n(-c3ccccc3)c2=O)c([N+](=O)[O-])cc1OC	8	4	3862	0.8	1	.	-23
CCC(NC(=O)C1C2C=CC(C2)C1C(=O)O)c1ccc(C)cc1 (configuration not stated)	10	20	4281	1.5	6	-7	-1
CCCOP(=O)(c1ccc(N(C)C)cc1)C(O)c1ccc(Br)cc1 (configuration not stated)	-2	7	3475	2.8	9	6	-50
CC1(C)OC(=O)C(=CNC(=O)c2c(F)cccc2F)C(=O)O1	7	7	4678	5.1	3	3	-9
CN(C1CC(C)(C)NC(C)(C)C1)S(=O)(=O)CC12CCC(CC1=O)C2(C)C (configuration not stated)	10	5	4978	3.4	3	-12	-23
CC(=NNc1ccccc1[N+](=O)[O-])c1ccc(C)c([N+](=O)[O-])c1	3	9	.	6.2	1	.	.
Cc1cccc(C2=NC(C(F)(F)F)(C(F)(F)F)c3c(n(-c4ccc(F)cc4)c(=O)[nH]c3=O)N2)c1	1	-3	2528	-3.2	-8	5	-18
COc1ccc(C(=O)NCC(C)(C)CNC(=O)c2ccc(OC)cc2)cc1	14	15	.	4.4	10	-3	-21
Cc1ccc(NC(C)C(=O)N/N=C/c2c[nH]c3ccccc23)cc1 (configuration not stated)	.	.	2253	.	.	-4	-19

Entries of single compounds as entered above:
COc1cc(C(=O)NCC(c2cccs2)N2CCOCC2)cc(OC)c1OC (configuration not stated) is listed as Mtb hypoxia inh: 4; Mtb hypoxia inh growth: 6; Autofluor counter: 6325; RN4220 kill: 1.0; Sa ugtP lethal: -2; BJeLR viability: 8; PrP UTR inh: 7
C(=NNc1nncc2ccccc12)c1ccccc1 is listed as Mtb hypoxia inh: 2; Mtb hypoxia inh growth: 4; Autofluor counter: .; RN4220 kill: 6.7; Sa ugtP lethal: -8; BJeLR viability: .; PrP UTR inh: .

The order is random, and some 4% of all compounds hit somewhere here.
